# Compound activity deposited in PubChem by National Center for Advancing Translational Sciences (NCATS).
# ALDH1A1 inh – qHTS Assay for Inhibitors of Aldehyde Dehydrogenase 1 (ALDH1A1); Aldehyde dehydrogenase 1A1 (Homo sapiens), P00352; Purified ALDH1A1, NADH fluorescence, propionaldehyde substrate; Potency, µM (series often up to 75.3 µM), inactives show at the highest dose activity, negative = inhibition, usual class: inhibitors; 7.3% of 220,000 active; AID 1030, 2008; active means well fitted inhibition curve with a large enough effect, not every such curve was filed as active; inconclusive means small, poorly fitted or top-dose-only effect, or another doubt; inactive means no such curve, though single readings can be large or run the other way;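 further: plate controls were no enzyme wells and a reference inhibitor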
# GAA glycogen mod – qHTS Assay for Inhibitors and Activators of Human alpha-Glucosidase Cleavage of Glycogen; Lysosomal alpha-glucosidase (Homo sapiens), P10253; recombinant GAA, glycogen substrate, Amplex Red glucose oxidase fluorescence; Potency, µM (titrated, usually from 76.4 µM), for inactives: at the highest dose activity change, negative = inhibition, actives largely listed as inhibitors; 0.38% of 300,000 active; AID 2100, 2009;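 further: 0% = full enzyme reaction and -100% = no-enzyme basal signal; the screen sought inhibitors and activators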
#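 Recombinant human enzyme (4 nM); glycogen substrate; 37 C, 40 min, pH 5.0. Readout: coupled glucose oxidase/Amplex Red fluorescence.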
# aGlu spleen mod – qHTS Assay for Inhibitors and Activators of Human alpha-Glucosidase From Spleen Homogenate; 0.006% of 240,000 active; human spleen homogenate, 4-MU-alpha-glucoside fluorescence; Potency, µM (highest dose often 79.9 µM), for the others: at the top dose activity change, negative = inhibition, hits mostly inhibitors;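 further: 0% = enzyme with vehicle and -100% = no enzyme basal signal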
#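 Human spleen homogenate (1 ug) incubated with compounds and 1 mM 4-methylumbelliferyl-alpha-D-glucopyranoside in pH 5.0 citrate/phosphate buffer, 37 C, 40 min. Stopped at pH 10; 4-MU fluorescence (Ex 365/Em 440 nm); AC50 by Hill fit.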
# GAA inh – qHTS Assay for Inhibitors of Human alpha-Glucosidase as a Potential Chaperone Treatment of Pompe Disease. Lysosomal alpha-glucosidase (Homo sapiens), P10253. purified human GAA, 4-MU-alpha-glucoside fluorescence. Potency, µM (doses to about 76.9 µM), for the others: top-dose activity change, negative = inhibition, actives largely listed as inhibitors. 0.005% of 200,000 active;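 further: plate controls were uninhibited enzyme wells for no effect and no-enzyme background for full effect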
#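 Endpoint fluorogenic read: 20 min room-temperature reaction of 4 nM human alpha-glucosidase with 400 uM 4-methylumbelliferyl-alpha-D-pyranoside, pH 5.0, quenched with 1M NaOH/1M glycine pH 10. AC50 from Hill modeling.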
# * hit, by the source's call; u = inconclusive; x = no result given; & = joins results of further samples; ! = not active in a repeat; [ ] = dose if it differs, or a comment. Unless noted, the call rests on the fitted dose curve; in most records, active means well fitted curve in the direction sought with a large enough effect; inconclusive means small, poorly fitted or top-dose-only effect, or another doubt; inactive means no such curve, though single readings can be large; an effect the other way counts as inactive or inconclusive. Potency means the concentration at half of the fitted maximal effect.
SMILES,ALDH1A1 inh,GAA glycogen mod,aGlu spleen mod,GAA inh
CC[C@@H]1CN2CCc3cc(OC)c(OC)cc3[C@@H]2C[C@@H]1C[C@H]1NCCc2cc(OC)c(OC)cc21,-6.2%,x,-4.7%,x
O=c1oc2ccccc2c(O)c1Cc1c(O)c2ccccc2oc1=O,6.31µM*!,x,5.6%,x
Clc1ccc(OCC#CCN2CCCCCC2)cc1,u,-0.6%,1.3%,-5.1%
CCCCn1c(=O)c(C(=O)NCc2ccncc2)c(O)c2ccccc21,u,-3.0%,-3.2%,-1.5%[15.4 µM]
CC[C@H]1CN2CCc3cc(OC)c(OC)cc3[C@@H]2C[C@@H]1C[C@H]1NCCc2cc(OC)c(OC)cc21,-9.0%&6.1%,6.2%,-20.9%&-3.9%,2.4%[15.4 µM]
c1cnc(N2CCCC3(CCNCC3)C2)nc1,u,x,-16.1%,x
O=C(CN1CCOCC1)c1cccc2ccccc12,12.6µM*,-21.4%,-1.1%,-10.6%
Cc1ccc(C(C)C)c(OCC#CCN2CCCC2)c1,-7.3%,12.0%,1.7%,-6.6%
O=C(Cc1ccccc1)N1CCN(Cc2cccc(Br)c2)CC1,x,5.9%,0.4%,x
CC(C)(C)OC(=O)N1CC(O)CC1C(=O)OCC(=O)c1ccc(-c2ccccc2)cc1 (stereo not given),-7.2%,-0.5%,1.4%,-6.6%
CCCCCCOc1ccc(C(=O)n2cnc(N)n2)cc1,u,1.7%,-6.1%,-6.9%
NC1C[C@H]1c1ccccc1 (stereo not given in full),-15.2%,x,-16.7%,x
Cc1cccc(OCC(=O)N2CCN(Cc3ccc4c(c3)OCO4)CC2)c1,u,6.0%,-2.1%,1.7%
CCN1CCN(Cc2cccc(Oc3ccccc3)c2)CC1,u,-0.3%,-11.2%,-2.3%

# An excerpt (hit frequency here may not be typical).
